Assay outcomes as filed in PubChem BioAssay.
Yeast UUG start – yeast start codon fidelity modulation; S. cerevisiae UUG-firefly luciferase reporter, luminescence/redox ratio; activity score, % at 18.7 µM; actives 0.13% (n = 350,000);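 active = replicate mean at a twofold rise or more, about +100% in these data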;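 note: firefly luciferase made from a UUG start codon reports start codon fidelity; reporter light over untreated wells divided by growth signal over untreated wells; some hits fall short of that in this replicate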
HIV Env fusion – inhibitors of HIV Env-mediated cell fusion | HeLa-JRFL Env/CEM21 cell fusion, luciferase | inhibition, % at 12.3 µM | actives 1.1% (n = 360,000);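 active = mean replicate inhibition score of at least 50 and every replicate individually at or above 50; inconclusive = only one of the two criteria met; inactive = mean below 50 and not all replicates reaching 50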;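 note: 0% = plate neutral controls and 100% = maraviroc near 300 nM; one replicate is shown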
Numbers without * were called inactive; [ ] = dose if it differs, or a comment.

The first 7 records, to show the layout:
For CC(C)C#Cc1cnc2c(c1)C(=O)N([C@H](C)CO)C[C@@H](C)[C@@H](CN(C)C(=O)c1cnccn1)O2 the results were Yeast UUG start 2 and HIV Env fusion -6[16.7 µM].
For Cc1cc(C(=O)Nc2cccc3c2O[C@@H](CN(C)CC2CC2)[C@H](C)CN([C@H](C)CO)C3=O)n(C)n1 the results were Yeast UUG start -7 and HIV Env fusion -7[16.7 µM].
For O=C(CN1CCOCC1)N[C@H]1CC[C@H](CCNS(=O)(=O)c2ccccc2F)O[C@@H]1CO the results were Yeast UUG start 2 and HIV Env fusion -15[16.7 µM].
CN(C)Cc1cn(CC[C@H]2CC[C@@H](NS(=O)(=O)c3ccc(-c4ccccc4)cc3)[C@H](CO)O2)nn1 was read as Yeast UUG start -16 and HIV Env fusion 5[16.7 µM].
Screening COc1ccc(S(=O)(=O)N(C)C[C@@H]2OCCCC[C@H](C)Oc3ccc(NC(=O)Nc4ccc(F)cc4)cc3C(=O)N([C@@H](C)CO)C[C@H]2C)cc1 returned Yeast UUG start -9 and HIV Env fusion -5[16.7 µM].
`C[C@H](CO)N1C[C@H](C)[C@@H](CN(C)C(=O)c2ccccc2F)Oc2ncc(Br)cc2C1=O` gave Yeast UUG start -4 and HIV Env fusion 7[16.7 µM].
For C[C@@H]1CN([C@H](C)CO)C(=O)c2cc(C#CCN(C)C)cnc2O[C@@H]1CN(C)Cc1cccc(C(=O)O)c1 the results were Yeast UUG start 3 and HIV Env fusion 0[16.7 µM].

Main list, previewed entries included:
For CC(C)C#Cc1cnc2c(c1)C(=O)N([C@H](C)CO)C[C@@H](C)[C@@H](CN(C)C(=O)c1cnccn1)O2 the results were Yeast UUG start 2 and HIV Env fusion -6[16.7 µM].
For Cc1cc(C(=O)Nc2cccc3c2O[C@@H](CN(C)CC2CC2)[C@H](C)CN([C@H](C)CO)C3=O)n(C)n1 the results were Yeast UUG start -7 and HIV Env fusion -7[16.7 µM].
For O=C(CN1CCOCC1)N[C@H]1CC[C@H](CCNS(=O)(=O)c2ccccc2F)O[C@@H]1CO the results were Yeast UUG start 2 and HIV Env fusion -15[16.7 µM].
CN(C)Cc1cn(CC[C@H]2CC[C@@H](NS(=O)(=O)c3ccc(-c4ccccc4)cc3)[C@H](CO)O2)nn1 was read as Yeast UUG start -16 and HIV Env fusion 5[16.7 µM].
Screening COc1ccc(S(=O)(=O)N(C)C[C@@H]2OCCCC[C@H](C)Oc3ccc(NC(=O)Nc4ccc(F)cc4)cc3C(=O)N([C@@H](C)CO)C[C@H]2C)cc1 returned Yeast UUG start -9 and HIV Env fusion -5[16.7 µM].
`C[C@H](CO)N1C[C@H](C)[C@@H](CN(C)C(=O)c2ccccc2F)Oc2ncc(Br)cc2C1=O` gave Yeast UUG start -4 and HIV Env fusion 7[16.7 µM].
For C[C@@H]1CN([C@H](C)CO)C(=O)c2cc(C#CCN(C)C)cnc2O[C@@H]1CN(C)Cc1cccc(C(=O)O)c1 the results were Yeast UUG start 3 and HIV Env fusion 0[16.7 µM].
For C[C@H]1CN([C@@H](C)CO)C(=O)c2cccc(NC(=O)c3ccc(-c4nccs4)cc3)c2O[C@@H]1CN(C)C(=O)Nc1ccc(F)cc1 the results were Yeast UUG start 6 and HIV Env fusion -10[16.7 µM].
`CC(C)CC#Cc1ccc2c(c1)O[C@@H](CN(C)C(=O)c1ccccc1F)[C@@H](C)CN([C@@H](C)CO)S2(=O)=O` gave Yeast UUG start -5 and HIV Env fusion 36[16.7 µM].
For O=C(C[C@@H]1C=C[C@@H](NC(=O)NC2CCCCC2)[C@H](CO)O1)NCc1ccc(F)cc1 the results were Yeast UUG start 12 and HIV Env fusion -3[16.7 µM].
COc1ccc(C(=O)Nc2ccc3c(c2)OC[C@@H](C)N(Cc2cocn2)C[C@H](C)[C@H](OC)CN(C)C3=O)cc1 was read as Yeast UUG start 2 and HIV Env fusion -10[16.7 µM].
COc1ccc(CN(C)C[C@H]2Oc3c(NC(=O)C4CCCCC4)cccc3C(=O)N([C@@H](C)CO)C[C@H]2C)cc1 was read as Yeast UUG start 1 and HIV Env fusion -8[16.7 µM].
C[C@@H]1CN([C@@H](C)CO)C(=O)c2cc(C#CC3(O)CCCC3)cnc2O[C@@H]1CN(C)C(=O)Nc1ccc2c(c1)OCO2 was read as Yeast UUG start 15 and HIV Env fusion -2[16.7 µM].
CO[C@H]1CN(C)C(=O)c2cc(NC(=O)c3ccc4c(c3)OCO4)ccc2OC[C@@H](C)NC[C@@H]1C was read as Yeast UUG start -5 and HIV Env fusion -13[16.7 µM].
C[C@H]1CCCCO[C@H](CN(C)S(=O)(=O)c2ccc(F)cc2)[C@@H](C)CN([C@@H](C)CO)C(=O)c2cc(NC(=O)Nc3ccc(C(F)(F)F)cc3)ccc2O1 was read as Yeast UUG start -12 and HIV Env fusion inconclusive.
COc1ccc(NC(=O)Nc2ccc3c(c2)C(=O)N([C@H](C)CO)C[C@H](C)[C@H](CN(C)Cc2ccc(Cl)c(Cl)c2)OCCCC[C@@H](C)O3)cc1 was read as Yeast UUG start -5 and HIV Env fusion -39[16.7 µM].
C[C@@H]1CN([C@@H](C)CO)C(=O)c2cc(C#CC3CCCCC3)cnc2O[C@@H]1CN(C)C(=O)c1ccncc1 was read as Yeast UUG start -10 and HIV Env fusion 5[16.7 µM].
For C[C@H](CO)N1C[C@H](C)[C@H](CN(C)CC2CCCCC2)OCCCC[C@H](C)Oc2ccc(NC(=O)Nc3cccc4ccccc34)cc2C1=O the results were Yeast UUG start -2 and HIV Env fusion 47[16.7 µM].
O=C(C[C@@H]1C=C[C@@H](NS(=O)(=O)c2ccccc2)[C@H](CO)O1)NCc1ccncn1 was read as Yeast UUG start -9 and HIV Env fusion 3[16.7 µM].
For C[C@@H]1CN([C@H](C)CO)C(=O)c2cc(-c3ccccc3)cnc2O[C@@H]1CN(C)CC1CC1 the results were Yeast UUG start 15 and HIV Env fusion -3[16.7 µM].
`COc1ccc(S(=O)(=O)N(C)C[C@H]2Oc3c(NC(=O)NC(C)C)cccc3C(=O)N([C@H](C)CO)C[C@H]2C)cc1` gave Yeast UUG start -6 and HIV Env fusion -33[16.7 µM].
Screening Cc1noc(C)c1NC(=O)N(C)C[C@H]1OCCCC[C@@H](C)Oc2ccc(NS(C)(=O)=O)cc2C(=O)N([C@H](C)CO)C[C@@H]1C returned Yeast UUG start -9 and HIV Env fusion -10[16.7 µM].
C[C@@H]1CN([C@@H](C)CO)C(=O)c2cc(NC(=O)C3CCCCC3)ccc2O[C@@H]1CN(C)S(=O)(=O)c1ccccc1 was read as Yeast UUG start 7 and HIV Env fusion -16[16.7 µM].
O=C(C[C@@H]1CC[C@H](NC(=O)Nc2ccc(C(F)(F)F)cc2)[C@@H](CO)O1)NCCN1CCCC1 was read as Yeast UUG start -5 and HIV Env fusion -8[16.7 µM].
CC(C)C#Cc1ccc2c(c1)O[C@@H](CN(C)C(=O)c1ccccc1)[C@H](C)CN([C@H](C)CO)S2(=O)=O was read as Yeast UUG start 4 and HIV Env fusion -8[16.7 µM].
`O=C(C[C@@H]1C[C@@H]2c3cc(NC(=O)c4cccnc4)ccc3O[C@@H]2[C@@H](CO)O1)NCc1ccc(Oc2ccccc2)cc1` gave Yeast UUG start -8 and HIV Env fusion 1[16.7 µM].
`CCC(=O)Nc1ccc2c(c1)C(=O)N(C)C[C@H](OC)[C@H](C)CN(C(=O)c1ccc(F)cc1)[C@@H](C)CO2` gave Yeast UUG start 0 and HIV Env fusion -6[16.7 µM].
N#C[C@H]1[C@@H](c2ccc(/C=C/c3ccccc3)cc2)[C@@H](CO)N1C(=O)C1CCCC1 was read as Yeast UUG start -33 and HIV Env fusion 29[16.7 µM].
For COc1ccccc1CNC(=O)C[C@@H]1C[C@@H]2c3cc(NS(C)(=O)=O)ccc3O[C@@H]2[C@H](CO)O1 the results were Yeast UUG start -11 and HIV Env fusion -13[16.7 µM].
For C[C@H](CO)N1C[C@H](C)[C@H](CN(C)C(=O)C2CCCCC2)Oc2cc(C#C[C@@H](C)O)ccc2S1(=O)=O the results were Yeast UUG start 13 and HIV Env fusion 11[16.7 µM].
C[C@@H]1CN([C@H](C)CO)C(=O)c2cc(NC(=O)Nc3ccc(C(F)(F)F)cc3)ccc2O[C@H]1CN(C)Cc1ccc(C(F)(F)F)cc1 was read as Yeast UUG start -3 and HIV Env fusion 9[16.7 µM].
`C[C@@H]1CN([C@H](C)CO)C(=O)CCCn2cc(nn2)CO[C@@H]1CN(C)S(=O)(=O)c1ccc(F)cc1` gave Yeast UUG start 0 and HIV Env fusion -9[16.7 µM].
Screening COc1ccccc1NC(=O)N[C@H]1CC[C@@H](CCn2cc(-c3ccccc3OC)nn2)O[C@@H]1CO returned Yeast UUG start 2 and HIV Env fusion inconclusive.
`C[C@@H]1CCCCO[C@@H](CN(C)C(=O)Nc2ccc3c(c2)OCO3)[C@@H](C)CN([C@H](C)CO)C(=O)c2cc(NC(=O)CCCN(C)C)ccc2O1` gave Yeast UUG start -1 and HIV Env fusion 21[16.7 µM].
`C[C@@H]1CN([C@@H](C)CO)C(=O)c2cc(C#C[C@@H](C)O)cnc2O[C@@H]1CN(C)C(=O)Nc1ccc(F)cc1` gave Yeast UUG start 8 and HIV Env fusion -28[16.7 µM].
For CCCNC(=O)N1C[C@@H](C)[C@H](OC)CN(C)C(=O)c2ccc(NS(C)(=O)=O)cc2OC[C@@H]1C the results were Yeast UUG start 3 and HIV Env fusion 3[16.7 µM].
`C[C@H](CO)N1C[C@H](C)[C@@H](CN(C)C(=O)NC2CCCCC2)Oc2ccc(NS(=O)(=O)c3cccs3)cc2CC1=O` gave Yeast UUG start 9 and HIV Env fusion 0[16.7 µM].
`COCc1cn(CC[C@H]2CC[C@H](NC(=O)Nc3ccccc3)[C@@H](CO)O2)nn1` gave Yeast UUG start -1 and HIV Env fusion 1[16.7 µM].
C[C@H]1CCCCO[C@H](CN(C)CC2CCCCC2)[C@@H](C)CN([C@@H](C)CO)C(=O)c2cc(NC(=O)Cc3ccccc3)ccc2O1 was read as Yeast UUG start 11 and HIV Env fusion -6[16.7 µM].
`C/C=C/c1cnc2c(c1)C(=O)N([C@@H](C)CO)C[C@@H](C)[C@H](CN(C)C(=O)Cc1ccccc1)O2` gave Yeast UUG start 13 and HIV Env fusion -23[16.7 µM].
For O=C(CCN1CCCCC1)NCC[C@@H]1CC[C@@H](NC(=O)C2CCC2)[C@@H](CO)O1 the results were Yeast UUG start -4 and HIV Env fusion -6[16.7 µM].
Screening COCCNC(=O)C[C@@H]1C[C@@H]2c3cc(NC(=O)CC4CC4)ccc3O[C@@H]2[C@@H](CO)O1 returned Yeast UUG start -13 and HIV Env fusion -4[16.7 µM].
`C[C@@H]1CN([C@@H](C)CO)C(=O)c2cc(C#CC3(O)CCCC3)cnc2O[C@H]1CN(C)C(=O)C1CCCCC1` gave Yeast UUG start 42 and HIV Env fusion 0[16.7 µM].
For C[C@@H]1CN([C@H](C)CO)C(=O)c2cc(-c3ccc(F)cc3)cnc2O[C@@H]1CN(C)Cc1ccccn1 the results were Yeast UUG start -21 and HIV Env fusion 5[16.7 µM].
Screening C[C@H]1CCCCO[C@H](CN(C)S(=O)(=O)c2cn(C)cn2)[C@@H](C)CN([C@@H](C)CO)C(=O)c2cc(NC(=O)NC3CCCCC3)ccc2O1 returned Yeast UUG start -4 and HIV Env fusion -15[16.7 µM].
C[C@H](CO)N1C[C@H](C)[C@@H](CN(C)C(=O)Nc2ccc(C(F)(F)F)cc2)Oc2ccc(NC(=O)CCC(F)(F)F)cc2CC1=O was read as Yeast UUG start 11 and HIV Env fusion 0[16.7 µM].
For CCC(=O)N(C)C[C@@H]1Oc2cc(C#CC3CC3)ccc2S(=O)(=O)N([C@H](C)CO)C[C@H]1C the results were Yeast UUG start -9 and HIV Env fusion 10[16.7 µM].
`COc1ccc(NC(=O)Nc2cccc3c2O[C@H](CN(C)C(=O)NC(C)C)[C@H](C)CN([C@H](C)CO)C3=O)cc1` gave Yeast UUG start 11 and HIV Env fusion 7[16.7 µM].
Screening C[C@H](CO)N1C[C@H](C)[C@H](CN(C)S(=O)(=O)c2cccs2)Oc2c(NC(=O)Nc3ccccc3)cccc2C1=O returned Yeast UUG start -2 and HIV Env fusion -15[16.7 µM].
COCc1cn(CC[C@H]2CC[C@@H](NC(=O)c3ccncc3)[C@@H](CO)O2)nn1 was read as Yeast UUG start -8 and HIV Env fusion -5[16.7 µM].
Cc1ccc(S(=O)(=O)Nc2ccc3c(c2)CC(=O)N([C@H](C)CO)C[C@@H](C)[C@@H](CN(C)Cc2ccc(Oc4ccccc4)cc2)O3)cc1 was read as Yeast UUG start 4 and HIV Env fusion -27[16.7 µM].
Screening C[C@@H]1CN([C@@H](C)CO)C(=O)c2cc(NC(=O)Nc3ccccc3)ccc2O[C@@H](C)CCCCO[C@@H]1CN(C)Cc1ccc(C(F)(F)F)cc1 returned Yeast UUG start 14 and HIV Env fusion -11[16.7 µM].
For COCCNC(=O)C[C@@H]1C=C[C@@H](NC(=O)NC2CCCCC2)[C@H](CO)O1 the results were Yeast UUG start -10 and HIV Env fusion 6[16.7 µM].
For C[C@@H]1CN([C@H](C)CO)C(=O)c2cc(NC(=O)Nc3ccccc3)ccc2O[C@H]1CN(C)C(=O)Nc1ccccc1 the results were Yeast UUG start 0 and HIV Env fusion 6[16.7 µM].
For O=C(C[C@@H]1CC[C@H]2[C@@H](COC[C@@H](O)CN2CCc2ccccc2)O1)NCc1ccccc1 the results were Yeast UUG start -10 and HIV Env fusion 8[16.7 µM].
For C[C@H]1CCCCO[C@@H](CN(C)C(=O)Nc2cccc3ccccc23)[C@@H](C)CN([C@@H](C)CO)C(=O)c2cc(NS(=O)(=O)c3cccs3)ccc2O1 the results were Yeast UUG start -7 and HIV Env fusion -17[16.7 µM].
For C[C@H]1CCCCO[C@H](CN(C)S(C)(=O)=O)[C@@H](C)CN([C@@H](C)CO)C(=O)c2cc(NC(=O)NC3CCCCC3)ccc2O1 the results were Yeast UUG start 9 and HIV Env fusion 5[16.7 µM].

This is a subset; rates above refer to the full screens.
